# Compound activity from PubChem BioAssay.
# PABP polyA inh = blocks human PABP binding to poly(A) RNA. P11940. fluorescence polarization. inhibition, % at 35 µM. actives 1% (n = 290,000). AID 2014;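 active = 50% or more with normal probe brightness, or confirmed in later tests; inconclusive = above 50% with abnormal brightness, or retests that disagree; inactive = below 50% or failed in later tests; about a fifth of its hits are not listed in these tables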;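 note: calls also rest on retests at 20 µM and on dose response follow-up; controls were probe without protein and protein plus probe with vehicle; some compounds called inactive have numbers as strong as hits; many hits fall short of the cut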
# Target sequence (P11940 whole entry, looked up): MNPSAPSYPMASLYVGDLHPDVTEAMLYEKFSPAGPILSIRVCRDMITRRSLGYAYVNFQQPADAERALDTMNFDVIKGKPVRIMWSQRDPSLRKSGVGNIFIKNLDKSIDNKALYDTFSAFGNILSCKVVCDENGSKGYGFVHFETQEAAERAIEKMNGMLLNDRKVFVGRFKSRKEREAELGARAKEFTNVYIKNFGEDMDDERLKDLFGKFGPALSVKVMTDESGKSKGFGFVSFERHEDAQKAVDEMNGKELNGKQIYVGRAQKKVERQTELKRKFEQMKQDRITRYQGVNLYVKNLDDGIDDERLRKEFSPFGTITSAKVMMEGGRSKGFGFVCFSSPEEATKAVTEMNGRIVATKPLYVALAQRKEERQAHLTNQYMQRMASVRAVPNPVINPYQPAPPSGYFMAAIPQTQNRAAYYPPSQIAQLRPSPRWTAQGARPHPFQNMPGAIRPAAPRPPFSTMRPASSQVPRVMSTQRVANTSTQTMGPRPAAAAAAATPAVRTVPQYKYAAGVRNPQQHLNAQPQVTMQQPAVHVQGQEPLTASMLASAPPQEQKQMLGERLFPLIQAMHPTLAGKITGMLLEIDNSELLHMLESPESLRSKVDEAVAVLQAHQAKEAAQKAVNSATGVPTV
# Rce1 inhib = yeast Ras-converting enzyme inhibition; Q03530; yeast membranes, quenched prenylated peptide cleavage fluorescence; calls only; actives 0.27% (n = 290,000);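 active = fall in fluorescence gain of 50% or more versus controls, with final raw signal at or below 3038400; inconclusive = same 50% fall but final raw signal above 3038400; inactive = fall in fluorescence gain under 50%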;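 note: plate controls were neutral control wells for no effect and wells lacking membranes for full effect; tested at 10 µM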
# Target sequence (Q03530 whole entry, looked up): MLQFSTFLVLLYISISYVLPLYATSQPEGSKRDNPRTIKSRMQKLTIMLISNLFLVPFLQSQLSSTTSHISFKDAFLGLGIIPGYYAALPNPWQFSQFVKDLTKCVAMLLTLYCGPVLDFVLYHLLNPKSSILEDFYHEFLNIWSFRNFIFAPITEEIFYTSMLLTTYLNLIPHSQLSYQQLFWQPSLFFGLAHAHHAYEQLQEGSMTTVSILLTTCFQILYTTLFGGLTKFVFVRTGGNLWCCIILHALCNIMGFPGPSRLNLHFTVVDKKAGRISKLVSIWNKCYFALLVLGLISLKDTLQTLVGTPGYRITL
# MT1-MMP act inh = inhibitors of human MT1-MMP activation; P50281; HT1080 RFP-PRO-GFP cells, GFP/RFP ratio fluorescence, overnight; percent of plate control window, DMSO zero; GFP/RFP ratio change, % at 20 µM; actives 0.061% (n = 360,000);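 active = GFP/RFP ratio change of at least 30% with cell ATP level not reduced by more than half and red fluorescence within 50% of control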; note: strong numbers were not always called active
#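 system = RFP-PRO-GFP reporter HT1080 cells | dosing = 20 µM single dose, 1% DMSO | timing = overnight cell settling, then overnight compound exposure, 37 °C, 5% CO2 | read-out basis = GFP/RFP fluorescence ratio | controls = DMSO and RFP-L50D-GFP cell wells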
# Env fusion inh = HIV envelope-mediated fusion inhibition. HeLa-JRFL Env/CEM21 cell fusion, luciferase. inhibition, % at 12.3 µM. actives 1.1% (n = 360,000). AID 651610;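 active = mean replicate inhibition score of at least 50 and every replicate individually at or above 50; inconclusive = only one of the two criteria met; inactive = mean below 50 and not all replicates reaching 50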;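 note: 0% = plate neutral controls and 100% = maraviroc near 300 nM; one replicate is shown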
# eIF4H inh = inhibitors of RNA binding by human eIF4H; Q15056; eIF4H fluorescence polarization binding assay; inhibition, % at 35 µM; actives 0.94% (n = 290,000); AID 2012;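 active = 50% or more with normal probe brightness, or confirmed in later tests; inconclusive = above 50% with abnormal brightness, or retests that disagree; inactive = below 50% or failed in later tests; about a fifth of its hits are not listed in these tables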;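 note: calls also rest on retests at 20 µM and on dose response follow-up; 0% = protein and probe with vehicle and 100% = probe without protein; strong numbers were not always called active; many hits fall short of the cut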
# Yeast UUG start = modulators of start codon recognition fidelity in yeast; S. cerevisiae UUG-firefly luciferase reporter, luminescence/redox ratio; activity score, % at 18.7 µM; actives 0.13% (n = 350,000);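 active = replicate mean at a twofold rise or more, about +100% in these data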;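 note: firefly luciferase made from a UUG start codon reports start codon fidelity; reporter light over untreated wells divided by growth signal over untreated wells; some hits fall short of that in this replicate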
# CSC inhib = cancer stem cell inhibition | cancer stem cell-like cells viability, luminescence | inhibition, % at 7.5 µM | actives 1.1% (n = 300,000) | AID 2717;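 active = mean at 75% or more and at least half the replicates too; inconclusive = mean and replicates disagree; tested in HMLE shEcad cells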;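 note: 0% = median of negative and 100% = median of positive control wells; the first replicate is given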
# MT1-MMP act inh RFP = second read-out of MT1-MMP act inh, no call of its own (marks repeat the call); RFP signal change, %; measured here: RFP expression control read;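 0 = vehicle wells; hits needed this value within 50% of zero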
# Active calls of the source: *; i = inactive; ? = inconclusive; nt = no result given.
canonical_smiles,PABP polyA inh,Rce1 inhib,MT1-MMP act inh,MT1-MMP act inh RFP,Env fusion inh,eIF4H inh,Yeast UUG start,CSC inhib
O=C(CCc1ccccn1)N1CCCC(Nc2cccc(F)c2)C1 (configuration not stated),2,i,0,1,3,-2,-12,7
COc1ccc(NC(=O)c2ccc3c(=O)n4c(nc3c2)CCCCC4)cc1,nt,i,6,-8,4,nt,5,-8
COc1ccc(Cl)cc1NC(=S)NCCN1CCOCC1,4,i,-4,1,11,-1,nt,-3
O=C(O/N=C1\CCCc2ccccc21)c1cccc(Cl)c1,4,i,3,4,-1,3,-24,-8
COc1ccc(C(=O)NC(=S)NNC(=O)c2c(-c3ccccc3)noc2C)cc1,4,i,13,4,nt,12,-17,27
Cc1cccc(NC(=O)C2CCCN2S(=O)(=O)c2ccc(F)cc2)c1C (configuration not stated),-8,i,0,3,3,-2,1,-12
CCc1ccc(Nc2ccc(S(=O)(=O)N3CCOCC3)cc2[N+](=O)[O-])cc1,-2,i,1,-14,11,-7,-13,0
O=C(Nc1ccc(N2CCN(C(=O)c3ccco3)CC2)cc1)c1ccc2c(c1)OCO2,-4,nt,0,-4,18,-3,-15,-9
CC(C)[C@H](NC(=O)OCc1ccccc1)C(=O)OCc1cc(=O)oc2cc(O)ccc12,-4,i,-3,1,11,39,8,1
COc1ccc(S(=O)(=O)NCCC(=O)OCC(=O)c2ccc[nH]2)cc1[N+](=O)[O-],nt,nt,-1,2,38,nt,3,nt
Clc1ccc2[nH]c3c(c2c1)CNCC3,5,i,-7,-3,18,-12,-24,nt
NS(=O)(=O)c1ccc(NC(=O)CCC(=O)c2ccc(Cl)s2)cc1,4,i,-1,6,1,2,-10,-6
CCN(CCCNC(=O)c1cn(CC)c2ccc(S(=O)(=O)N(C)C)cc2c1=O)c1cccc(C)c1,-2,i,0,-6,1,-4,12,0
CC(Sc1nnc(Nc2ccccc2)s1)C(=O)Nc1nc(-c2ccccc2)cs1 (configuration not stated),-10,i,0,0,-14,1,-19,38
Cc1cccc(CN2CCN(C(=O)c3cccc4ccccc34)CC2)c1,12,i,-2,1,20,-2,-10,3
O=S(=O)(Nn1cnnc1)c1ccccc1Cl,-5,i,3,6,nt,4,-14,-13
O=c1[nH]c(O)c(C=Nc2ccc(Cl)cc2Cl)c(=O)[nH]1,?,i,2,0,8,?,-16,nt
COc1ccc(S(=O)(=O)N2CCC(C(=O)NCc3ccccn3)CC2)cc1C,-4,i,2,-2,nt,-7,-4,-5
CCC(C(=O)NC1CCCC1)N(C(=O)Cn1nnc(-c2ccc(OC)c(OC)c2)n1)c1cccc(O)c1 (configuration not stated),-4,i,-1,-2,-10,-2,4,8
O=C(NCC1CCCO1)c1cccc(S(=O)(=O)N2CCCCC2)c1 (configuration not stated),nt,nt,4,1,-7,nt,-20,nt
CCC(C)(C)c1ccc(Oc2cccc(C(=O)O)c2)cc1,6,i,-7,1,-8,1,4,19
Cc1cc(C)nc(-n2nc(C)c(Oc3ccccc3O)c2C)n1,4,i,1,2,nt,-4,nt,-13
O=C(CCCSc1nc(-c2ccco2)cc(C(F)(F)F)n1)NCC1CCCO1 (configuration not stated),-5,nt,-8,-2,nt,33,nt,14
CCOC(=O)c1ccc(-n2c(C)ccc2C)cc1,0,i,2,9,7,2,nt,2
O=C(CN1C(=O)NC2(CCc3ccccc32)C1=O)Nc1ccccc1Cl (configuration not stated),nt,nt,5,0,-8,nt,2,4
CC1CN(C(=O)c2cc(S(=O)(=O)N(C)c3ccc(F)cc3)ccc2Cl)CC(C)O1 (configuration not stated),3,i,-6,-19,61*,-4,5,nt
O=c1[nH]c2ccsc2c(=O)n1CCO,-9,i,2,2,1,-21,-20,-6
COc1ccc(S(N)(=O)=O)cc1C(=O)N(C)CC(=O)Nc1ccc(N2CCOCC2)cc1,3,i,1,7,-61,-5,-7,1
O=C(Cc1ccc(Br)cc1)NNC(=O)c1cccs1,nt,nt,2,5,12,nt,-24,2
CC(C)=CCN1CCN(Cc2nc(C(C)C)cs2)CC1CCO (configuration not stated),-1,i,12,3,2,-4,0,13
CCOc1cc(/C=C2\N=C(C)OC2=O)cc(Br)c1OCC(=O)OC,6,i,2,6,nt,-1,nt,13
CCN1C(=O)/C(=C2\C=Cc3ccccc3N2CC)OC1=S,nt,i,0,2,nt,nt,nt,-4
COc1ccc(-c2c(-c3cc(OC)c(OC)c(OC)c3)noc2C)cn1,-2,i,8,1,nt,0,-19,nt
Cc1ccc(S(=O)(=O)NCCC(=O)N2CCCCCCC2)cc1C,nt,i,1,-2,2,nt,nt,-10
Cc1cccc(NC(=O)c2cc([N+](=O)[O-])ccc2N2CCOCC2)c1C,nt,nt,1,-2,21,nt,25,nt
CCOc1ccc(OCC(=O)OCC(=O)NNC(=O)c2ccc([N+](=O)[O-])cc2)cc1,nt,i,4,5,nt,nt,-13,-6
c1ccc(-c2noc(CN3CCCC(OCc4ccccn4)C3)n2)cc1 (configuration not stated),-3,i,-2,0,14,2,-9,0
CCOc1ccc(OCC)c(NC(=O)CCS(=O)(=O)c2ccc(Br)s2)c1,3,i,1,-1,-19,-6,-10,-12
O=C(CSc1nc2ccccc2c(=O)n1-c1ccc(F)cc1F)NC1CC1,nt,nt,5,3,29,nt,-16,nt
O=[N+]([O-])c1cccc(P(=O)(O)c2cccc([N+](=O)[O-])c2)c1,0,nt,4,4,9,-6,nt,2
COc1ccc(-n2nccc2-c2nn(-c3cccc(OC)c3)c(=O)n(C)c2=O)cc1,-2,i,-2,3,nt,-4,3,-3
CCN(CCCNC(=O)c1nn(C)c2c1CS(=O)(=O)c1ccccc1-2)Cc1ccccc1,3,i,0,3,-2,1,-21,-8
CCN1C(=O)/C(=C2\Sc3ccccc3N2CC)OC1=S,-4,i,-9,-1,-14,-1,nt,14
O=C(Nc1ccccc1-c1ccccc1)c1ccccc1Br,1,i,1,1,-2,-4,-2,15
Cc1ccc(S(=O)(=O)N(C)C)cc1NC(=S)NC(C)CCC(C)C (configuration not stated),10,i,5,-3,-4,-13,-24,-3
COc1ccc(N2CCN(C(=O)COC(=O)CC(NC(N)=O)c3ccc(Cl)cc3)CC2)cc1 (configuration not stated),nt,nt,1,-10,13,nt,-6,nt
Cc1cc(N(C)C)cc(C)c1N=Nc1cc[n+]([O-])cc1,nt,nt,26,-1,-24,nt,19,nt
NC(=O)[C@@H]1CC2(CC(c3cccc(NC(=O)[C@H]4CCC(=O)N4)c3)=NO2)CN1C(=O)COc1ccc(Cl)cc1 (some centres not stated),12,i,0,8,21,-3,-2,-23
c1ccc(-c2nnc(CN3CCCCC3)o2)cc1,-2,i,3,5,-14,-3,nt,-19
CCN(CC)CCNC(=O)c1ccc(N2CCCCC2)c(NS(=O)(=O)c2ccc(C)cc2)c1,11,i,-4,0,nt,-4,nt,7
CCc1cccc(CC)c1NC(=S)/C(=C(\[O-])c1ccc(Cl)s1)[n+]1ccccc1,3,i,-9,-2,18,9,nt,-2
CC1CCCCN1C(=O)Cn1cnc2cc([N+](=O)[O-])ccc2c1=O (configuration not stated),33,i,3,4,-7,2,-16,-10
CC1(C)CC(=O)c2cn3nc(C(F)(F)F)nc3nc2C1,7,i,-3,0,nt,8,-21,-9
CCCNC(=O)C(Cc1ccccc1)NS(=O)(=O)c1ccc2c(c1)CCC(=O)N2 (configuration not stated),2,i,-2,1,-115,4,-13,-7
CC(CCc1ccccc1)NC(=O)c1ccc(-n2cncn2)c([N+](=O)[O-])c1 (configuration not stated),nt,i,4,0,-13,nt,-12,-1
COc1ccc(S(N)(=O)=O)cc1C(=O)NC1CCCc2ccccc21 (configuration not stated),-3,nt,1,2,14,6,-10,-9
COc1ccc(OCC(=O)N/N=C(\C)CC(=O)Nc2ccc(OC)cc2[N+](=O)[O-])cc1,0,i,0,-1,-9,3,nt,-13
CN1CCC(N(C)C(=S)NC(=O)c2cc(-c3cccc(Br)c3)nc3ccccc23)CC1,8,i,2,3,-3,7,nt,39
O=C(CCN1C(=O)/C(=C/c2ccccc2Cl)SC1=S)NNC(=O)c1ccccc1O,-3,i,-1,5,4,-3,-18,11
CCCCCC(=O)Nc1ncc2c(n1)CC(c1cccs1)CC2=O (configuration not stated),-2,i,-1,-3,8,-8,-2,-8

# Continuation:
canonical_smiles,PABP polyA inh,Rce1 inhib,MT1-MMP act inh,MT1-MMP act inh RFP,Env fusion inh,eIF4H inh,Yeast UUG start,CSC inhib
CCOc1ccc(N2C(=O)CC(N3CCOCC3)C2=O)cc1 (configuration not stated),4,i,-8,1,nt,3,-5,-5
Cc1ccc(S(=O)(=O)NN=Cc2ccc(N3CCOCC3)cc2)cc1[N+](=O)[O-],nt,nt,-2,0,0,nt,-2,2
COc1cc(/C=N/NC(=O)c2ccc3nc[nH]c3c2)cc(OC)c1OC(C)=O,nt,nt,2,4,1,nt,-6,nt
CCOc1ccc(NC(=O)CCN2CCN(C)CC2)cc1,-5,i,-2,0,-2,-7,-13,-1
COc1ccc(NC(=O)c2ccc(C#N)cc2)cc1NS(=O)(=O)c1ccc(F)cc1,2,i,0,1,19,-8,-12,2
COc1cc2[nH]c(=O)c(C(=O)NCCCN3CCCCC3)c(O)c2cc1OC,18,nt,3,1,nt,-6,-15,-9
COc1cc(/C=N/NC(=O)C2CCN(CC(O)COCc3ccccc3)CC2)cc(OC)c1OC (configuration not stated),-4,i,3,3,12,1,-7,-8
CCOc1cc(CNCC(C)C)c(Cl)cc1OCC(=O)Nc1ccccc1,-5,i,-2,1,-93,-1,-32,-1
NS(=O)(=O)c1ccc(CCNCc2cc(Br)ccc2OCc2ccccc2)cc1,-9,i,-2,-6,19,-8,nt,-6
CCc1cc2c(-c3ccccc3)cc(=O)oc2c(CN2CCOCC2)c1O,-6,i,-6,-3,2,-6,-5,-20
COc1ccc(N(CC(=O)Nc2cc(C)ccc2C)S(=O)(=O)c2c(C)noc2C)cc1,-9,i,1,-2,37,8,-13,?
Oc1ccccc1Cc1c(O)ccc2ccccc12,nt,i,4,-4,1,nt,-5,19
COc1ccc(-n2nnnc2SCC(=O)N2CCCC2=O)cc1,nt,nt,0,-7,nt,nt,-26,-2
COc1ccc(OC)c(N(CC(=O)NCC2CCCO2)S(=O)(=O)c2ccccc2)c1 (configuration not stated),11,i,-1,-1,-3,-8,1,2
Clc1ccc(CCNc2nc3ccccc3n3nnnc23)cc1,9,i,-2,3,-6,22,-20,0
Cc1ccc(NC(=O)c2cccnc2)cc1S(=O)(=O)N(C)C,0,i,0,2,6,6,nt,-4
Nc1ncnc2c1ncn2[C@@H]1O[C@H](CNC(=O)OC[C@@H](N)Cc2ccccc2)[C@@H](O)[C@H]1O,nt,nt,0,1,5,nt,-16,nt
Cc1ccc(-n2c(SCC(=O)N/N=C/c3ccccc3OCC(=O)O)nc3ccccc3c2=O)cc1,4,i,3,-1,2,1,-6,-18
Cc1ccc(S(=O)(=O)c2nc(-c3ccco3)oc2SCC(=O)NCC2CCCO2)cc1 (configuration not stated),2,i,-10,5,nt,3,4,-8
CCOc1cc(C(=O)Nc2ccc([N+](=O)[O-])cn2)cc(OCC)c1OCC,9,i,1,2,13,-5,-2,-1

# Some of the compounds tested. The share of hits here may be higher or lower than overall.
